# High-throughput results (PubChem BioAssay)
# AID504770 – E. coli YBA685 growth inhibition, screen for V. cholerae RctB inhibitors; 0.27% of 130,000 active; E. coli YBA685 rctB-dependent plasmid, OD600 growth, 3 h; active compounds read low; z-score (no concentration beside the values);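 active = z-score under -2 on both plates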;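 also: wells of about 30 µL received 100 nL stock; score is relative to mean and SD of the test wells; the first replicate is given; strong numbers were not always called active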
# Ba CapD inh – CapD enzyme inhibition; AID 492967; z-score (test concentration not listed); 0.23% of 140,000 active; purified CapD enzyme, fluorescence intensity read-out; active compounds read low; some hits fall short of the stated cut;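 active = z-score under -4 in either of two replicates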;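 also: stock transfer was 100 nL into about 40 µL; score is relative to mean and spread of the plate; one replicate is shown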
# * marks the source's active call; other numbers are inactive results; i = inactive; / = no result given; & = joins results of further samples.
# The opening 2 compounds as a preview:
Molecule	AID504770	Ba CapD inh
CCOc1ccc(N2C(=O)CC(/C=C3/N(C)c4ccccc4C3(C)C)C2=O)cc1 (stereo not given)	1.4	-0.11
CC12CCC(C(=O)Nc3ccc(OC(=O)C45CCC(C)(C(=O)O4)C5(C)C)cc3)(OC1=O)C2(C)C (stereo not given)	/	-0.56

# All compounds of this part (from the top)
Molecule	AID504770	Ba CapD inh
CCOc1ccc(N2C(=O)CC(/C=C3/N(C)c4ccccc4C3(C)C)C2=O)cc1 (stereo not given)	1.4	-0.11
CC12CCC(C(=O)Nc3ccc(OC(=O)C45CCC(C)(C(=O)O4)C5(C)C)cc3)(OC1=O)C2(C)C (stereo not given)	/	-0.56
O=C(CSc1nc2ccccc2[nH]1)N1CCCC1	-1.2	/
Cc1cccc(N2CCN(CCNC(=O)c3csc4c3CCCC4)CC2)c1C	0.05	0.35
CC1CCCCN1CCCNC(=O)c1c(O)nc2ccccn2c1=O (stereo not given)	-0.25	67
N#Cc1cccc(CSc2ccc(Cl)cc2)c1	/	0.02
CCOCCOC(=O)COc1ccc2c(=O)c(Oc3ccccc3Br)coc2c1	/	-0.44
COc1ccccc1NC(=S)N(Cc1ccccc1)Cc1ccc(C)o1	0.45	-0.17

# The results go on:
Molecule	AID504770	Ba CapD inh
CC(C)CCN(C(C)c1cccs1)S(=O)(=O)c1csc(C(N)=O)c1 (stereo not given)	0.25	0.3
Cc1nn(C)c(C)c1S(=O)(=O)NC1CCCC1	-0.6	-0.81
O=C(CC(C(=O)c1cccnc1)c1ccc2c(c1)OCO2)c1ccc(Cl)cc1 (stereo not given)	-1.1	0.15
O=c1[nH]c(CN2CCCC2c2ccc3c(c2)OCCO3)nc2cc(Cl)ccc12 (stereo not given)	0.2	/
Cc1occc1-c1nnc(SCC(=O)N(CC(C)C)c2c(N)n(CC(C)C)c(=O)[nH]c2=O)n1C	-0.55	/
CCOc1ccc(-n2c(C)nc3cc(C(=O)NCc4ccc5c(c4)OCO5)ccc32)cc1	/	0.37
CSc1nc2sc3c(c2c(=O)n1CCc1ccccc1)CC(C)(C)OC3	/	-0.24
CCOC(=O)C(C)n1cnc2c(nnn2Cc2ccc(C)cc2)c1=O (stereo not given)	1.4	-0.61

# Following part:
Molecule	AID504770	Ba CapD inh
Cc1ccc(Cn2c(C(=O)NCc3ccccc3)cc3oc(C)cc32)cc1	0.1	0.52
CC(C)=CCCC(C)CN1CCN(Cc2ccccc2)CC1 (stereo not given)	-1	0.27
Cc1onc(-c2ccccc2Cl)c1C(=O)NCc1nc(-c2ccc(C(F)(F)F)cc2)no1	/	-0.36
CNC(=O)COc1ccc(NC(=O)CCn2nc(-c3ccc(Cl)cc3)c3ccccc3c2=O)cc1	0.15	0.48
Cc1ccc(-c2nn(-c3ccccc3)cc2/C=C2/CN(C)C/C(=C/c3cn(-c4ccccc4)nc3-c3ccc(C)o3)C2=O)o1	1.9	/
CCn1c(SCC(=O)N2CCNC2=O)nnc1-c1cccs1	0.05	/
CCCOc1ccc(/C=C/C(=O)O)cc1OCC	-0.95	7.9
COC(=O)c1c(NC(=O)c2c(-c3ccccc3Cl)noc2C)sc2c1CCCC2	-0.15	-0.99

# Additional entries follow.
Molecule	AID504770	Ba CapD inh
CN1CC=C(Cc2n[nH]c(=O)c3ccccc23)CC1	0.05	-0.12
CCn1cc(C(=O)NCc2ccc(C)cc2)c(=O)c2cc(S(=O)(=O)N(C)C)ccc21	0.15	-0.065
Cn1c(=O)[nH]c(=O)c2[nH]c(SCC(=O)O)nc21	-0.3	/
COc1cc(CCNC(=O)OCCc2c(C)cc(C)cc2C)cc(OC)c1	/	-0.1
CN1c2ccccc2C(=O)/C(=C/N=S(C)(C)=O)S1(=O)=O	/	2
O=C(OCC(=O)N1CCCC1=O)c1ccc(S(=O)(=O)NCc2ccco2)cc1	-0.75	/
Cc1ccc(S(=O)(=O)NCCCCCC(=O)O)cc1	/	0.39
CCOc1cc(-n2cnnn2)c(OCC)cc1NC(=O)CN1Cc2ccccc2C1=O	0.65	9.1

# Next structures.
Molecule	AID504770	Ba CapD inh
CC(C)n1cc(-c2nc(C(=O)NN)cs2)c(=O)n(Cc2ccccc2)c1=O	-0.35	1.1
Cc1nc(N2CCC(C)CC2)c2c(C)c(C(=O)NCC3COc4ccccc4O3)sc2n1 (stereo not given)	/	5.4
COC(=O)c1ccc(OC(=O)c2cc(OC)c(OC)c(OC)c2)c(C(=O)OC)c1	-0.3	/
NC(=O)C1CCN(c2nc(-c3cccc(Cl)c3)c3c(n2)-c2ccccc2OC3)CC1	0	53
Cc1ccc(N2CC(N)=C(n3cc[n+](C)c3)C2=O)cc1	-0.35	0.18
O=c1cc(CO)oc(C(=Nc2ccc(Cl)cc2)c2ccncc2)c1O	0.85	/
Cc1cc(N2CCN(C)CC2)nc2ccc(NC(=S)N3CCC(C)CC3)cc12	0.9	2.8
CC(C(=O)N1CCc2ccccc21)n1cccc1 (stereo not given)	2.7	-0.06

# Going on with the list.
Molecule	AID504770	Ba CapD inh
Cn1cc(C(=O)OCc2ccc(C#N)cc2)c2ccccc21	0.15	/
Cc1sc(NC(=O)CN2CCOCC2)c(C#N)c1C	0.2	-0.26
Cc1ccc(N=Cc2ccc[nH]2)c(Br)c1	1.4	-0.26
CC(C)C(=O)Nc1c(O)c2ccccc2[nH]c1=O	1.6	2.2
COc1cc2c(cc1OC)C(C)N(C(=O)c1ccc(-c3ccccn3)s1)CC2 (stereo not given)	/	0.85
CCC(C)N1C(=O)CCC1C(=O)O (stereo not given)	-0.65	-0.2
c1ccc(-n2c(SCc3cn4ccsc4n3)nc3ccccc32)cc1	-0.2	/
O=S(=O)(c1cccc(Br)c1)N1CCCN(c2nc3ccc(Cl)cc3s2)CC1	/	-0.13

# The results go on.
Molecule	AID504770	Ba CapD inh
CC[C@H]1CN2CCc3cc(OC)c(OC)cc3[C@@H]2C[C@@H]1CC1NCCc2cc(OC)c(OC)cc21 (stereo not given in full)	/	1.4
Nc1nncn1C(=O)c1ccc2c(c1)OCO2	-1.1	-0.53
CN(C(=O)c1ccc(=O)n(Cc2c(Cl)cccc2Cl)c1)c1ccccc1	/	0.36
COC(=O)c1[nH]n(-c2c(C)cccc2Cl)c(=O)c1N=O	-1	-1.5
CCc1ccc(N/C(SCc2ccccc2C)=C(/C#N)C(=O)NCc2ccc3c(c2)OCO3)cc1	/	-0.47
O=C(CSc1nc2ccccc2c(=O)n1CCCN1CCN(c2cccc(Cl)c2)CC1)Nc1nccs1	/	-0.51
COc1cccc(N2CCN(C(=O)Cc3n[nH]c(=O)c4ccccc34)CC2)c1	-2.2	/
Cc1csc2sc(C(=O)Oc3ccc(Cl)cc3)c(C)c12	0.3	0.43

# Next structures
Molecule	AID504770	Ba CapD inh
Cc1cc(C(=O)Nc2ccc(Cl)cc2)c(C(F)(F)F)o1	-0.5	-0.68
COc1ccc2nc(NC(=O)CSc3nc4ccccc4[nH]3)sc2c1	/	-1.2
CNC(=O)c1cc2c(n(-c3ccccc3)c1=O)CCCC2=O	-0.05	/
Cn1nc(C(F)(F)F)c2cc(C(=O)O)sc21	-0.05	0.54
Sc1sc(-c2ccccc2)cc1C=Nc1ccccc1	-0.5	i
CCOC(=O)C1=C(N)Oc2ccc3ccccc3c2C1c1cccc(O)c1 (stereo not given)	/	-0.1
Oc1ccccc1C=NCCN=Cc1ccccc1O	/	-0.57
O=C(CC1CCCCC1)Nc1ccncc1	-0.4	-0.025

# Record cards, from the list above:
# c1ccc(-n2c(SCc3cn4ccsc4n3)nc3ccccc32)cc1 is listed as AID504770 = -0.2; Ba CapD inh = /
# O=c1cc(CO)oc(C(=Nc2ccc(Cl)cc2)c2ccncc2)c1O is listed as AID504770 = 0.85; Ba CapD inh = /

# Next section
Molecule	AID504770	Ba CapD inh
N/C(CCN(Cc1ccco1)S(=O)(=O)c1cccc2nsnc12)=N\O	/	-0.98
CCCN(C(=O)Cc1noc2ccc(C)cc12)c1ccc(Cl)c(Cl)c1	-0.7	-0.94
COc1cc2c(cc1OC)C1=C(C#N)CN(c3ccc(C)c(C)c3)CN1CC2	0.15	-0.075
C=C1SC(Nc2cccc(Cl)c2)=NC1(C)C	1	0.84
Cc1onc(-c2ccccc2Cl)c1C(=O)N(CC(C)C)CC(C)C	0	0.61
C=CCn1c(-c2cc(OC)c(OC)c(OC)c2)nc2ccccc21	1.6	-0.89
Cc1cc(CSC(N)=Nc2ccccc2)c(C)cc1CSC(N)=Nc1ccccc1	/	-0.05
CCn1c(C(=O)N2CCC(C(=O)NC(C)c3ccccc3)CC2)cc2sccc21 (stereo not given)	0.65	0.45

# Remaining list, next part.
Molecule	AID504770	Ba CapD inh
N#Cc1c2c(c(NCc3ccco3)n3c1nc1ccccc13)CCC2	/	0.28
O=C1CSc2ccc(C(=O)NC3CCCCCC3)cc2N1	-1.5	49
N#C/C(=C\c1ccccc1OC(F)(F)F)S(=O)(=O)c1ccccc1	-0.1	-0.14
O=c1c2c(-c3cccs3)csc2[nH]c(=S)n1-c1ccccc1	1.8&-0.55	-1.2
CCNc1c(NC(=O)c2cc(OC)c(OC)c(OC)c2)c(=O)oc2ccccc12	-0.75	0.025
Cc1ccc(-c2ccc(NC(=O)c3ncoc3-c3ccc(F)cc3)cc2)o1	0.15	/
COc1ccc(CC(=O)OC2CCCN(C)C2)cc1 (stereo not given)	0	/
CCOC(=O)c1sc(/S(C)=N/C(=O)Nc2ccccc2Cl)c2c1CCC=C2 (stereo not given)	-0.7	0.16

# Copied from the list:
# Under Ba CapD inh, `N#Cc1c2c(c(NCc3ccco3)n3c1nc1ccccc13)CCC2` has the entry 0.28
# Under Ba CapD inh, `CCNc1c(NC(=O)c2cc(OC)c(OC)c(OC)c2)c(=O)oc2ccccc12` has the entry 0.025
# Under AID504770, `Cc1ccc(-c2ccc(NC(=O)c3ncoc3-c3ccc(F)cc3)cc2)o1` has the entry 0.15
# Under AID504770, `CCOC(=O)c1sc(/S(C)=N/C(=O)Nc2ccccc2Cl)c2c1CCC=C2` (stereo not given) has the entry -0.7
# Under Ba CapD inh, `N#C/C(=C\c1ccccc1OC(F)(F)F)S(=O)(=O)c1ccccc1` has the entry -0.14

# (listing goes on)
Molecule	AID504770	Ba CapD inh
Cc1[nH]c2ccccc2c1C(c1ccccn1)N1CCC(C(N)=O)CC1 (stereo not given)	-0.05	-0.55
Cc1ccc(-n2ncc3c(NCCc4ccc(S(N)(=O)=O)cc4)ncnc32)c(C)c1	-0.25	1.2
CNC(=S)N/N=C/c1ccc2c(c1)OCO2	/	-0.45
COc1ccc(-c2noc(C3CCN(C(=O)OC(C)(C)C)CC3)c2C(=O)O)cc1	-0.55	3.4
Cc1csc(SCC(=O)Nc2ccc(S(N)(=O)=O)cc2)n1	-0.5	/
C=CCNc1oc(-c2cccs2)nc1C#N	-1.4	80
CC1(C)CC(=O)C2=C(C1)c1c(ccc3ccccc13)NC2c1cccc(OCc2c(F)cccc2Cl)c1 (stereo not given)	/	9.4
Cn1cc(Br)c(NC(=O)c2ccc(Cl)c(Cl)c2)n1	-0.2	0.28

# Later entries:
Molecule	AID504770	Ba CapD inh
CCCS(=O)(=O)c1c(S(=O)(=O)CCC)c2ccccn2c1C(=O)N/N=C/c1ccccc1I	/	-0.26
COc1cccc(C2NC(=O)c3c(sc4c3CCCC4)N2)c1 (stereo not given)	/	-0.095
Cc1nnsc1C(=O)Nc1ccc(-n2nc(C(F)(F)F)cc2C(F)(F)F)cc1	2.4	-0.72
O=C1c2ccccc2S(=O)(=O)N1CC(O)COc1ccccc1 (stereo not given)	-0.6	-0.36
COCCCNC(=O)c1c[nH]c2ccc(S(=O)(=O)N(C)c3ccc(Br)cc3)cc2c1=O	/	1.2
OC(Cn1ccnc1)n1c(-c2ccccc2)nc(-c2ccccc2)c1-c1ccccc1 (stereo not given)	0.3	/
O=C(O)c1cccc(Cn2cc(Cl)cn2)c1	-0.45	-0.39
Cc1csc2nc(CSc3nc4ccc([N+](=O)[O-])cc4[nH]3)c(Br)n12	/	-0.9

# (cont.)
Molecule	AID504770	Ba CapD inh
Cc1ccc(C(=O)COC(=O)CCc2nc3ccccc3[nH]c2=O)cc1C	1.2	/
Cc1ccc(-n2ncc3c(Nc4ccccc4)ncnc32)cc1	0.05	0.89
FC(F)(F)c1nnc2n1N=C(c1ccc(Cl)cc1Cl)CS2	-0.4	0.16
COc1ccc(NC(=O)CN2C(=O)/C(=C3\SC(=S)N(CCC(=O)O)C3=O)c3ccccc32)cc1	/	-0.15
Cc1cc2c(=O)[nH]c(Cc3ccccc3)nc2s1	0.6	0.88
Nc1ccc(O)c(-c2nc3ccccc3o2)c1	2.6	0.54
COc1ccc(CCNc2ccc(C)cc2)cc1	-0.35	0.43
CCc1ccccc1NC(=O)C1CC1(c1ccc(C)cc1)c1ccc(C)cc1 (stereo not given)	/	-0.36

# Further compounds:
Molecule	AID504770	Ba CapD inh
Cc1cccc(NC(=O)[C@@H]2CCCN2C(=O)OC(C)(C)C)c1	-1.1	/
CN(C)C(=S)SCC(=O)Nc1ccc(F)cc1	0.45	/
Cc1ccc2c(c1C)NC(=O)CC(c1ccccc1O)=N2	-0.85	-1.4
Cc1sc(-n2c(C)cc(C=C3C(=O)NC(=S)NC3=O)c2C)c(C#N)c1C	-0.65	-0.99
O=C(Cn1c(-c2ccccn2)nc2ccccc21)NCCCn1ccnc1	0.3	-0.16
CCCCSc1nnc2c(=O)[nH]c(=O)[nH]c2n1	-1.6	-3
O=C(c1ccccc1)N1CCN(S(=O)(=O)c2ccccc2C(F)(F)F)CC1	/	0.04
O=CC12c3ccccc3C(c3ccccc31)C1C(=O)N(c3ccc(Cl)cc3Cl)C(=O)C12 (stereo not given)	/	-0.16

# Carrying on.
Molecule	AID504770	Ba CapD inh
O=C(NCC1CCCCC1)c1ccc(-n2cnnn2)cc1	-0.7	/
O=C1NC(=O)N(CCc2ccc(F)cc2)C(=O)/C1=C/c1cccc2ccccc12	-0.45	0.17
O=C(N/N=C/c1ccc(OCc2ccccc2)cc1)C1CC1c1ccccc1 (stereo not given)	/	0.19
CC1CN(Cn2nc(-c3ccc(Br)o3)n(Cc3ccccc3)c2=S)CC(C)O1 (stereo not given)	0.3	/
CN(Cc1nc(-c2ccc(C(F)(F)F)cc2)no1)C1CS(=O)(=O)CC1O (stereo not given)	0.65	/
